ugtP null kill: growth inhibition of S. aureus ugtP deletion strain; S. aureus RN4220 ugtP deletion, OD600 growth, 16 h; some inactives read as strong as hits; growth inhibition, % (no concentration beside the values); hit rate 0.54% among 330,000; AID 1259309;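 active means z-score under -3 and OD600 up to 0.15 on both plates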;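 further: plate controls were untreated wells for no effect and antibiotic for full effect; wells of about 80 µL received 100 nL stock; the first replicate is given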
RN4220 kill: S. aureus RN4220 growth inhibition; OD600, 16 h; inhibition, % (concentration not given with the values); hit rate 0.33% among 330,000;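 active means z-score of -3 or lower and OD600 up to 0.18 on both plates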;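 further: plate controls were untreated cells for no effect and reference antibiotic for full effect; stock transfer was 100 nL into about 80 µL; one replicate is shown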
Autofluor counter: flagged as autofluorescent in microsphere protease counterscreen; compound autofluorescence counterscreen, microsphere flow cytometry; hits give high values; fluorescence intensity (no concentration beside the values); hit rate 3.1% among 360,000; AID 624483;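 active means at least 3 SD above the mean of all compounds, about 16000 in these data; inconclusive means too few beads counted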;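 further: 100 nL of 1 mM stock went into each well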
PrP UTR inh: inhibition of PrP 5' UTR reporter expression | cell-based PrP 5' UTR mRNA reporter, plate reader | inhibition, % (test concentration not listed) | hit rate 0.35% among 340,000 | AID 488862;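 active means every replicate at 50% or more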;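 further: 0 = median of the neutral control wells; tested in H4 reporter cells; numbers are from one replicate; inactives centre near -14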
BJeLR viability: BJeLR cell viability loss; BJeLR (HRASV12) viability, CellTiter-Glo ATP luminescence, 48 h; reference of the scale not given here; hit rate 0.17% among 300,000; inhibition, % (test concentration not listed);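 active means replicate mean above 50%; inconclusive means above 50% but judged a plate artefact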;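 further: 50 nL library stock added to about 25 µL; numbers are from one replicate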
Mtb hypoxia inh: inhibitors of hypoxia-regulated fluorescent reporter in Mycobacterium tuberculosis; M. tuberculosis hypoxia-regulated fluorescent reporter, fluorescence; AID 1159583; fluorescence inhibition, % (no concentration beside the values); hit rate 0.1% among 300,000;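 active means 35 to 45% if threefold the growth effect, above 45% if 1.5-fold the growth effect; inactive means the rest, general growth blockers included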;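 further: wells of about 50 µL received 100 nL stock; 0% = vehicle wells and 100% = reference inhibitor wells; whole bacteria with a GFP reporter of the hypoxia response; strong numbers were not always called active; many hits fall short of the cut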
Mtb hypoxia inh growth: also measured in Mtb hypoxia inh; calls as there; growth inhibition, %; measured here: M. tuberculosis growth (absorbance);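 0% = vehicle and 100% = reference antibiotic; read after six days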
* = called active by the depositor; u = inconclusive; x = no result given. Compounds as they come. Share with any hit: about 4%.

SMILES	ugtP null kill	RN4220 kill	Autofluor counter	PrP UTR inh	BJeLR viability	Mtb hypoxia inh	Mtb hypoxia inh growth
Nc1nc2nonc2nc1N1CCCCC1	-1	1.8	2475	-15	-2	x	x
O=C(CCN1C(=O)c2ccccc2C1=O)C1=NN[C@@H]2C(=O)N(c3ccc4c(c3)OCO4)C(=O)[C@H]12	4	2.7	4578	x	-11	11	10
CCOC(=O)C(C(=O)Nc1nccs1)C1CCCCC1 (configuration not stated)	0	4.1	2317	-6	1	13	4
COc1ccc(S(=O)(=O)NCC2CCC(C(=O)NCc3ccco3)CC2)cc1 (configuration not stated)	0	-1.2	2256	8	3	x	x
Cc1nc(NC(=O)c2ccco2)sc1-c1csc(Nc2ccc(Cl)cc2Cl)n1	29	39	3960	0	9	9	2
CCN(CC)S(=O)(=O)c1cccc(NC(=O)CN(C)Cc2cccc(OC)c2)c1	11	6.4	5588	-10	0	14	-7
O=C(CNC(=O)c1ccccc1)NCCc1nc2ccccc2[nH]1	-4	-0.2	3202	-15	13	-2	4
CC(=O)c1cc(N2CCC(C(=O)O)CC2)ccc1[N+](=O)[O-]	-2	0.9	4704	-28	7	2	4
CCn1nc([N+](=O)[O-])c2c(-c3nc4ccccc4o3)c(N)n(CCCOC)c2c1=O	-1	-16	3301	-13	17	1	-4
Cc1cccc(N=C2NC(=O)CS2)c1	3	4.3	2886	-23	11	10	5
CC(Cn1nnc([N+](=O)[O-])n1)=NNC(=O)c1ccccc1Cl	74	22	x	x	x	9	14
CCOC(=O)c1c(CN(CC)CC)oc2cc(Br)c(O)cc12	3	1.7	4353	-28	12	2	-9
O=c1c2cc(NC(=S)NCc3cccnc3)ccc2nc2n1CCCCC2	3	6.6	4202	-8	0	10	17
Cc1cc(NC(=O)CN2CCOCC2)n(-c2nc3ccccc3s2)n1	-2	2.5	x	x	1	19	9
COc1cc2cc(CCOC(=O)CCCC(=O)O)oc(=O)c2cc1OC	-5	8.9	4001	-7	x	8	9
CC(=O)c1cccc(NC(=O)CN2CCc3cc4c(cc3C2)OCCCO4)c1	-13	-3.9	6400	2	0	x	x
CC1CCN(S(=O)(=O)c2ccc3ncn(CC(=O)N(C)Cc4ccccc4)c(=O)c3c2)CC1	4	5.7	3656	3	11	5	0
CCn1c(SCC(=O)Nc2nncs2)nnc1C(C)NC(=O)c1ccccc1Br (configuration not stated)	14	5.5	4742	-12	-1	-1	-15
CC(OC(=O)c1cccc(S(=O)(=O)Nc2cccc(C(F)(F)F)c2)c1)C(=O)Nc1ccc2c(c1)OCCO2 (configuration not stated)	-13	2.6	2193	-5	-6	-4	5
CC1Sc2ccc(S(=O)(=O)CCC(=O)NCc3cccs3)cc2NC1=O (configuration not stated)	7	-0.1	5983	-18	-1	-2	1
CCOC(=O)N1CCN(C(=O)c2ccc(NS(=O)(=O)c3ccc(F)cc3)cc2)CC1	6	-0.4	4913	-82	3	1	2
COc1cccc(/C=C/C(=O)OCC(=O)NCCNC(=O)COC(=O)/C=C/c2cccc(OC)c2)c1	-4	5.3	3821	2	x	-3	6
CCCc1ccc(Oc2coc3cc(OCC(=O)Nc4ccccc4C)ccc3c2=O)cc1	9	3.0	9001	-19	7	3	2
Cc1ccc(-c2nc(CSCC(=O)N3CCN(c4ccccn4)CC3)c(C)o2)cc1	6	8.4	6232	-12	6	x	x
COc1cccc(C(=O)N2CCN(Cc3nc(CC4CC4)no3)CC2)c1	6	2.6	3518	-12	12	-5	3
C(=C\c1ccco1)/c1ccc2ccccc2n1	2	8.6	6080	x	18	9	8
CCCCOC(=O)Nc1nnc(C(C)C)s1	-4	6.4	4467	-25	-1	5	5
O=C(Cn1nnc(-c2ccccc2F)n1)N1CCCCC1	10	2.9	3814	-43	2	10	2
COc1ccc(CCNc2ccncn2)cc1OC	4	3.3	23028*	-5	-8	6	5
CCOC(=O)c1ccc(NS(=O)(=O)c2ccc3[nH]c(=O)[nH]c3c2)cc1	1	-0.4	u	-19	-1	-4	-6
Cc1oc(-c2ccccc2)cc1C(=O)Nc1ccccc1	-9	6.5	2847	-16	-12	2	0
CC(OC(=O)Cc1c[nH]c2ccccc12)C(=O)Nc1ccc(S(N)(=O)=O)cc1 (configuration not stated)	0	0.2	6927	-21	-7	5	2
O=C(C1CCCN(S(=O)(=O)c2cccc3nonc23)C1)N1CCN(c2cccc(Cl)c2)CC1 (configuration not stated)	-1	5.7	10759	-23	-7	2	5
CSc1ccc(CNC(=O)C2Cc3cc(S(=O)(=O)N4CCCCC4)ccc3N2C(C)=O)cc1 (configuration not stated)	16	-3.3	5728	-21	-6	-5	4
Oc1ccc(/C=N/NP(=S)(c2ccccc2)c2ccccc2)cc1O	x	x	10433	-14	7	x	x
O=S(=O)(/N=C(/Nc1ccccn1)c1ccccc1)c1ccc(F)cc1	-1	3.4	5949	-12	-5	4	1
CCOC(=O)c1c(NC(=O)C2=C(C)NC(=S)NC2c2ccc(CC)cc2)sc(C)c1C (configuration not stated)	-16	3.9	x	x	4	17	2
CCN(CC)CCNc1nc(-c2ccc(OC)cc2)c(-c2ccc(OC)cc2)s1	31	4.3	6300	0	-2	x	x
O=C(NCCOc1ccc(F)cc1)C1CCC(=O)N(CCCN2CCCC2=O)C1 (configuration not stated)	-2	-2.2	5783	6	-9	-4	3
C=CCNc1nc(Cl)nc(Nc2ccc(OC)cc2)n1	4	3.1	11426	-21	8	-2	0
Cc1sc2ncnc(OCC(=O)N3CC(=O)Nc4ccccc43)c2c1C	3	4.2	4668	-6	x	13	1
COc1ccc(N2C(=O)CC(NCCNc3ccc([N+](=O)[O-])cn3)C2=O)cc1 (configuration not stated)	11	3.0	6986	-29	-1	2	4
O=C(O)C(c1ccccc1)N1CCCC1 (configuration not stated)	5	5.8	3992	-8	-3	-5	6
Cn1c2ccccc2c(=O)c2c(=O)n(C3CCCCC3)c(-c3cccs3)nc21	-23	-5.6	11170	-7	9	-1	10
O=S(=O)(c1ccccc1)N(CC(O)CN1CCCCC1)c1ccccc1 (configuration not stated)	5	1.7	2923	-9	-12	x	x

The final 2 records of the part before open the next one.
SMILES	ugtP null kill	RN4220 kill	Autofluor counter	PrP UTR inh	BJeLR viability	Mtb hypoxia inh	Mtb hypoxia inh growth
Cn1c2ccccc2c(=O)c2c(=O)n(C3CCCCC3)c(-c3cccs3)nc21	-23	-5.6	11170	-7	9	-1	10
O=S(=O)(c1ccccc1)N(CC(O)CN1CCCCC1)c1ccccc1 (configuration not stated)	5	1.7	2923	-9	-12	x	x
Clc1ccc2oc(-c3cccnc3NCc3ccccc3)nc2c1	7	-11	19024*	-14	3	1	5
CC1CCN(CCNC(=O)CCS(=O)(=O)c2ccc(Br)cc2)CC1	7	5.3	5423	-5	x	x	x
CCOC(=O)C1=C(C)OC2(O)c3ccccc3C(=O)C12O (configuration not stated)	11	0.4	3664	x	-5	8	-5
CC(C)(C)c1ccc(C=CC(=O)O)s1	1	9.4	x	x	x	1	10
COC(=O)c1sc(S(=O)(=O)N2CCN(c3ccccc3)CC2)c(C(=O)OC)c1C	6	-3.3	8013	-17	4	2	2
Cc1cccc(C(=O)Nc2scc(-c3ccc(Br)cc3)c2C(=O)O)c1	29	42	3533	-3	11	11	3
O=C(Nc1ccc(Cl)cc1Cl)Nn1cnnc1	3	0.1	6533	-43	10	1	-18
COc1cccc2cc(-c3nnc(SCC(=O)Nc4nc(C)cs4)n3C)oc12	-24	5.3	3196	-5	-1	6	-1
Cc1cc(C)cc(C(=O)OCC(=O)Nc2cccc(S(=O)(=O)NC3=NCCCCC3)c2)c1	3	3.6	2028	-19	6	1	11
CCc1cc(=O)oc2c(C)c(OCC(=O)NCCCN3CCCC3=O)ccc12	10	4.6	4382	0	-2	7	-10
Cc1cc(NC(=O)COC(=O)c2ccc(S(=O)(=O)N3CCCc4ccccc43)cc2)no1	10	11	3639	-9	4	x	x
CN(C)C(=O)C1OC(C)(C)OC1C(=O)N(C)C (configuration not stated)	0	5.0	7864	-21	1	3	7
O=C(NCc1cccc(F)c1)C1CCN(C(=O)c2sccc2-n2cccc2)CC1	12	4.5	2530	-6	-3	4	-1
NC(=O)c1ccc(Oc2ccc(Cl)c3ccccc23)c([N+](=O)[O-])c1	-4	1.7	2438	-23	-6	8	4
Cc1nn(-c2ccccc2C(=O)O)c(=O)c2ccccc12	-1	1.0	22783*	-15	-2	8	14

A second format for part of the listing above:
Compound,ugtP null kill,RN4220 kill,Autofluor counter,PrP UTR inh,BJeLR viability,Mtb hypoxia inh,Mtb hypoxia inh growth
Cc1nn(-c2ccccc2C(=O)O)c(=O)c2ccccc12,-1,1.0,22783*,-15,-2,8,14
CCOC(=O)C1=C(C)OC2(O)c3ccccc3C(=O)C12O (configuration not stated),11,0.4,3664,x,-5,8,-5
O=C(NCc1cccc(F)c1)C1CCN(C(=O)c2sccc2-n2cccc2)CC1,12,4.5,2530,-6,-3,4,-1
COC(=O)c1sc(S(=O)(=O)N2CCN(c3ccccc3)CC2)c(C(=O)OC)c1C,6,-3.3,8013,-17,4,2,2

(cont.)
SMILES	ugtP null kill	RN4220 kill	Autofluor counter	PrP UTR inh	BJeLR viability	Mtb hypoxia inh	Mtb hypoxia inh growth
CC(C)CCNC(=O)c1c[nH]c2ccc(S(=O)(=O)N3CCC4(CC3)OCCO4)cc2c1=O	-4	0.0	10350	-29	9	5	7
CCc1ccc(N2CC(O)=C(c3nc4ccccc4c(=O)[nH]3)C2=N)cc1	11	-2.0	4656	-10	4	13	2
Cc1ccc(F)cc1NC(=O)N1CCCN(c2ccc(C(F)(F)F)cn2)CC1	0	2.2	3910	-7	1	-7	-12
COc1ccc(CCNC(=O)c2cc(-c3ccc(C)cc3O)n[nH]2)cc1OC	-11	0.4	2922	-9	7	0	4
O=C(NCc1ccccc1)C1(C(F)(F)F)C/C(=C\CCO)CCCO1 (configuration not stated)	x	x	2917	-20	14	x	x
CCOC(=O)Cn1c(C(=O)OCC)cc2sccc21	3	4.0	8575	-20	-5	-3	-7
Cc1nc2ccc(S(=O)(=O)NC(C(=O)NCc3ccco3)C(C)C)cc2s1 (configuration not stated)	7	4.6	5715	-17	3	x	x
CCC1Oc2ccccc2N(CC(=O)NCCCN2CCN(CC)CC2)C1=O (configuration not stated)	4	1.0	5807	-6	-8	8	5
Clc1ccccc1Cn1nnc(-c2ccccc2)n1	-3	3.0	4734	-44	0	11	13
COc1ccc(Cl)cc1N=Cc1c(O)n(C)c(=O)n(C)c1=O	0	1.0	2945	7	-10	2	3
O=C(CN1CCN(S(=O)(=O)c2ccc(Br)cc2)CC1)N/N=C/c1ccc(Cl)c([N+](=O)[O-])c1	x	x	2484	-18	1	x	x
COc1ccc(C(C(=O)NC2CCCCC2)N(CC2CCCO2)C(=O)C2COc3ccccc3O2)cc1OC (configuration not stated)	-2	1.2	4651	7	-7	-7	7
Cc1ccc(S(=O)(=O)NNC(=O)Nc2cccc3ccccc23)cc1	x	x	9146	2	0	x	x
COc1ccc(-n2c(=O)n(Cc3ccccc3)c(=O)c3[nH]cnc32)cc1	4	3.2	4562	-10	1	0	-2
COc1ccc(COCC(O)CN2CCC(CN3C(=O)c4cccc5cccc(c45)C3=O)CC2)cc1OC (configuration not stated)	2	0.9	2084	-25	6	-10	2
COC(=O)c1ccc(Cn2c(O)c(N=O)c3ccccc32)o1	0	4.2	3105	-11	12	x	x
O=C(NCCc1ccccc1)c1ccccc1SCC(=O)N1CCCC1	-1	6.3	5888	-40	-1	11	1
O=C(CSc1ccccc1F)NNC(=O)c1cncc(Br)c1	4	2.5	3592	-19	x	4	4
Cc1nn(CC(=O)N(C)C2CCS(=O)(=O)C2)c(C)c1S(=O)(=O)N(C)C (configuration not stated)	2	5.1	4807	x	x	12	4

Record cards (already shown):
`CCc1ccc(N2CC(O)=C(c3nc4ccccc4c(=O)[nH]3)C2=N)cc1` reads ugtP null kill = 11; RN4220 kill = -2.0; Autofluor counter = 4656; PrP UTR inh = -10; BJeLR viability = 4; Mtb hypoxia inh = 13; Mtb hypoxia inh growth = 2
`CCn1nc([N+](=O)[O-])c2c(-c3nc4ccccc4o3)c(N)n(CCCOC)c2c1=O` reads ugtP null kill = -1; RN4220 kill = -16; Autofluor counter = 3301; PrP UTR inh = -13; BJeLR viability = 17; Mtb hypoxia inh = 1; Mtb hypoxia inh growth = -4

Source: PubChem (several laboratories)
